YopH PTP inh – blocks Yersinia enterocolitica YopH tyrosine phosphatase; hit rate 0.16% among 140,000; inhibition, %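 (about 10 µM by stock and volumes)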; AID 898; fluorescence Ex485/Em525;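 active = inhibition of 50% or more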;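 also: controls were vehicle for no effect and minimum signal wells for full effect; inactives centre near -20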
Mtb bLac sens – beta-lactam sensitization of Mtb H37Rv | hit rate 0.27% among 330,000 | AID 434955 | inhibition, % at 25 µM | M. tuberculosis H37Rv growth with meropenem, percent inhibition; hits of this screen are not shown here;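 active = about 74% or more and at least 40 points above the plate without the antibiotic, then above 30% in a dose series; inconclusive = first-round hits that could not be retested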;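 also: growth measured after seven days incubation then overnight dye step; 0% = bacteria only wells and 100% = bacteria with antibiotic; twin plates without the antibiotic show which effects depend on it; some results filed as inactive read as strong as hits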
RecA splice inh – inhibitors of M. tuberculosis RecA intein splicing; inhibition, %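 (about 9 µM by stock and volumes)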; AID 2221; P9WHJ3; cell-free RecA intein splicing, fluorescence; hit rate 0.75% among 290,000; in the data active = inhibition above about 30%; inconclusive = no clear call, values can overlap the other calls;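 also: 0% = vehicle wells and 100% = reference inhibitor control wells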
Target sequence (P9WHJ3 whole entry, looked up, canonical isoform): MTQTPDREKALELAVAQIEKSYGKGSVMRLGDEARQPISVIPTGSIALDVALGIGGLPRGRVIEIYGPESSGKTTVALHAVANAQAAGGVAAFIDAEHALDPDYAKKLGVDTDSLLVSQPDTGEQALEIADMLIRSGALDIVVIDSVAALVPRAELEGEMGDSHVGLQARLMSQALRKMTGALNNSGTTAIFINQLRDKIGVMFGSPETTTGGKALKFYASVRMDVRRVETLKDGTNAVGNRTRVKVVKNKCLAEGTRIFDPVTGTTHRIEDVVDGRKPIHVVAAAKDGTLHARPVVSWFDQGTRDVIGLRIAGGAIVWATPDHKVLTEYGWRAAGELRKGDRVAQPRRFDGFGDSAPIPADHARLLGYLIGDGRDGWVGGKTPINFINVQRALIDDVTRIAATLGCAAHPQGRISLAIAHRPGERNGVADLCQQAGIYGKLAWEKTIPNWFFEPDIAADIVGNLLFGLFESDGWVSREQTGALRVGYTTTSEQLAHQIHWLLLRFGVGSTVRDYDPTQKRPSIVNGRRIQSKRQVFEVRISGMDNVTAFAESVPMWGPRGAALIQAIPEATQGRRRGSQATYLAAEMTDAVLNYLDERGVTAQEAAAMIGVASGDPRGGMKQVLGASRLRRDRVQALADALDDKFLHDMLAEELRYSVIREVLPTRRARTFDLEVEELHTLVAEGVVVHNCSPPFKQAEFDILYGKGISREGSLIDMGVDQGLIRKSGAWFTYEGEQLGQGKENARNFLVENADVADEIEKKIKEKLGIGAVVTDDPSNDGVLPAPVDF
Mtb H37Rv – M. tuberculosis H37Rv growth inhibitors, H37Rv strain (AID 1626); hit rate 0.95% among 220,000; inhibition, % at 10 µM, or IC50 in µM where a hit was titrated; M. tuberculosis H37Rv growth inhibition; higher % means a stronger effect;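 active = confirmed in a dose series; inconclusive = inhibition above 80% but not taken into the dose series; inactive = below 80% or under 30% at every dose of the series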;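 also: bacteria incubated seven days before Alamar blue readout; 0% = bacteria only wells and 100% = bacteria with antibiotic wells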
Arbovirus anti – blocks arbovirus infection; arbovirus infection cell-based antiviral screen; inhibition, % at 10 µM; hit rate 0.37% among 200,000;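 active = inhibition from about 30%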;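 also: bluetongue infection of BSR cells; cell survival read as ATP light after 72 h; 0% = infected wells without compound and 100% = uninfected wells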
Arbovirus anti repeat – recorded beside Arbovirus anti, whose call it bears; inhibition, %; measured here: 10K subset replicate screen; many hits read low in the repeat;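 first of two repeat runs on a subset; 0% = infected and 100% = uninfected wells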
* hit, by the source's call; ? = inconclusive; . = not tested or not shown. A portion of the library, so the mix of outcomes need not match the whole.

SMILES	YopH PTP inh	Mtb bLac sens	RecA splice inh	Mtb H37Rv	Arbovirus anti	others
CCCn1c2ccccc2c2nnc(SCC(=O)Nc3c(C)n(C)n(-c4ccccc4)c3=O)nc21	-49	3	-1.4	1%	-1
Cc1[nH]c2ccccc2c1C(C[N+](=O)[O-])c1cccs1 (stereo not given)	.	10	6.9	6%	5
COCCCNc1ccnc2c(Cl)cccc12	-1	4	-1.0	4%	9
CCOc1ncccc1C(=O)Oc1ccc2c(c1)OCO2	-42	74	-4.1	1%	7
Cc1ccc(-n2nnnc2SCC(=O)Nc2cc(C)on2)c(C)c1	.	5	-1.5	.	.
O=C(COC(=O)/C=C/c1ccc(Cl)cc1Cl)Nc1ccc2c(c1)OCCO2	.	-1	-3.5	3%	0
COc1ccc(C2=NN(CCC(=O)NC3CCCCCC3)C(=O)CC2)cc1	.	-5	3.8	.	.
O=C(CSc1nnc(-c2ccccn2)o1)Nc1ccccc1F	.	3	-3.1	.	.
CCOC(=O)c1sc2nc(C)nc(SCC(=O)NC3CCS(=O)(=O)C3)c2c1C (stereo not given)	.	4	0.5	-2%	19
O=C(Nc1ccc2c(c1)OCO2)O[C@@H]1C[C@H]2CCCC(=O)N3CC[C@@H](C1)[C@@H]23	.	-12	-3.6	.	.
CCN1C(=O)[C@H]2[C@@H](c3ccc(C)cc3)N3C(=O)N(c4cccc(F)c4)C(=O)[C@@]3(Cc3ccc(Cl)cc3)[C@H]2C1=O	.	-8	-4.0	.	.
COc1ccc(C)cc1S(=O)(=O)N1CCN(C(=O)c2ncoc2-c2ccc(F)cc2)CC1	.	0	2.1	.	.
O=C(CN1CCOCC1)c1c[nH]c2ccccc12	1	-7	-2.5	2%	7
CC(=O)N1CC=C2C(C#N)=C(N)C(C#N)(C#N)C(CCc3ccccc3)C2C1 (stereo not given)	-39	10	19	2%	-1
Cc1ccc(C)c(OCC(=O)Nc2cccc(C(=O)O)c2)c1C	2	-20	-2.2	-2%	1

Structural class, the entries above with sulfur (6)
SMILES	YopH PTP inh	Mtb bLac sens	RecA splice inh	Mtb H37Rv	Arbovirus anti	others
CCCn1c2ccccc2c2nnc(SCC(=O)Nc3c(C)n(C)n(-c4ccccc4)c3=O)nc21	-49	3	-1.4	1%	-1
Cc1[nH]c2ccccc2c1C(C[N+](=O)[O-])c1cccs1 (stereo not given)	.	10	6.9	6%	5
Cc1ccc(-n2nnnc2SCC(=O)Nc2cc(C)on2)c(C)c1	.	5	-1.5	.	.
O=C(CSc1nnc(-c2ccccn2)o1)Nc1ccccc1F	.	3	-3.1	.	.
CCOC(=O)c1sc2nc(C)nc(SCC(=O)NC3CCS(=O)(=O)C3)c2c1C (stereo not given)	.	4	0.5	-2%	19
COc1ccc(C)cc1S(=O)(=O)N1CCN(C(=O)c2ncoc2-c2ccc(F)cc2)CC1	.	0	2.1	.	.

Compounds shown so far that contain an aryl methoxy group:
SMILES	YopH PTP inh	Mtb bLac sens	RecA splice inh	Mtb H37Rv	Arbovirus anti	others
COc1ccc(C2=NN(CCC(=O)NC3CCCCCC3)C(=O)CC2)cc1	.	-5	3.8	.	.
COc1ccc(C)cc1S(=O)(=O)N1CCN(C(=O)c2ncoc2-c2ccc(F)cc2)CC1	.	0	2.1	.	.

(listing goes on)
SMILES	YopH PTP inh	Mtb bLac sens	RecA splice inh	Mtb H37Rv	Arbovirus anti	others
O=C(NCC(O)c1ccc2ccccc2c1)c1c(F)cccc1F (stereo not given)	.	0	-0.5	.	.
CCc1cc(=O)oc2cc(C)cc(OC(C)C(=O)NCCCN3CCCC3=O)c12 (stereo not given)	.	1	1.1	.	.
CC(C)(C)N(C(=O)Cn1nnc(-c2ccc(F)cc2)n1)C(C(=O)NC1CCCC1)c1ccncc1 (stereo not given)	7	-5	3.3	-4%	16
O=C(Nc1ccc(OC(F)(F)F)cc1)c1ccc(-n2cncn2)nc1	.	1	-0.6	5%	14
CCOC(=O)CSc1nnc(CNC(=O)c2ccc(OC)c(OC)c2)n1C	-17	-11	-2.4	-3%	7
Cc1cc(-c2ccccc2N)n[nH]1	-27	2	2.9	-19%	3
CCOc1cc(N2CCOCC2)c(OCC)cc1NC(=O)COc1cccc(Cl)c1	.	0	-2.6	.	.
Cc1cc(=O)oc2cc(OCC(=O)NCCc3nc4ccccc4[nH]3)ccc12	-25	3	1.3	-13%	0
COC(=O)c1cn(Nc2ncc(C(F)(F)F)cc2Cl)c(=O)c2ccccc12	-14	4	-0.9	-7%	-1
O=C(NCCc1c[nH]c2ccccc12)c1cc2ccccc2oc1=O	.	99	3.1	<0.2µM*	0
O=c1cc(CSc2ccccn2)[nH]c(=O)[nH]1	-34	4	0.2	-10%	4
COC(=O)c1[nH]c2cc(OC)ccc2c1NC(=O)CCN1CCN(c2ccccc2)CC1	-16	1	-1.6	-7%	10
COc1cc(-c2n[nH]c(=S)n2-c2ccc(C)cc2)cc(OC)c1OC	.	-4	-0.2	-3%	1
O=C1N(Nc2ccccc2)C(c2ccc(Br)cc2)C12CCCC2 (stereo not given)	-11	3	0.0	1%	0
CC(=O)Nc1sc2c(c1C(N)=O)CCCC2	-31	-5	.	-1%	1
CCCNC1=C(C)C(=O)C2=C(C1=O)C(COC(N)=O)[C@]1(OC)C3NC3CN21 (stereo not given in full)	.	9	12	?	.
O=C(NCCCN1CCCC1=O)c1c(O)nc2ccccn2c1=O	.	-3	-1.7	.	.
CNC(=O)COC(=O)/C=C/c1nc2ccccc2s1	.	43	0.1	10%	3
CC(NC(=O)NC(N)=O)(C(F)(F)F)C(F)(F)F	-8	2	-0.1	-6%	-2
Clc1ccc(C(CCN2CCCC2)Cc2ccccc2)cc1 (stereo not given)	.	-1	-0.5	.	.
CCc1nnc2n1N=C(c1cccc([N+](=O)[O-])c1)CS2	.	-9	-3.8	-1%	.
Cc1scc(C(=O)NNC(=S)NCC2CCCO2)c1-c1ccccc1 (stereo not given)	-10	11	6.0	-4%	8
CSc1ncccc1C(=O)NC1CCCCCCC1	.	1	-5.5	.	.
CCOc1ccc(/C(O)=C2/C(=O)C(=O)N(CCN(CC)CC)C2c2cccs2)cc1 (stereo not given)	.	-5	3.4	-10%	.
O=C1NC(=O)C(=Cc2ccc(N3CCOCC3)o2)C(=O)N1	.	4	.	2%	2
CSCCC(NC(=O)C1CCC(C)CC1)C(=O)NCc1ccco1 (stereo not given)	-11	?	0.1	-10%	-1
Cc1ccc(NC(=S)Nc2cccc3ccccc23)cc1	.	11	8.8	.	.
CN(C)C(=O)CNC(=O)C1CCCCC1	5	-4	-2.0	9%	2
Cc1nnc(SCCn2c(N3CCC(Cc4ccccc4)CC3)nc3c2c(=O)[nH]c(=O)n3C)s1	.	45	3.6	.	15	Arbovirus anti repeat=-3
O=C(Nc1ccccc1C(=O)N1CCCC1)c1ccccc1	0	4	-0.3	-10%	-5

Compounds from the list above containing an NH in an aromatic ring:
SMILES	YopH PTP inh	Mtb bLac sens	RecA splice inh	Mtb H37Rv	Arbovirus anti	others
Cc1[nH]c2ccccc2c1C(C[N+](=O)[O-])c1cccs1 (stereo not given)	.	10	6.9	6%	5
O=C(CN1CCOCC1)c1c[nH]c2ccccc12	1	-7	-2.5	2%	7
Cc1cc(-c2ccccc2N)n[nH]1	-27	2	2.9	-19%	3
Cc1cc(=O)oc2cc(OCC(=O)NCCc3nc4ccccc4[nH]3)ccc12	-25	3	1.3	-13%	0
O=C(NCCc1c[nH]c2ccccc12)c1cc2ccccc2oc1=O	.	99	3.1	<0.2µM*	0
O=c1cc(CSc2ccccn2)[nH]c(=O)[nH]1	-34	4	0.2	-10%	4
COC(=O)c1[nH]c2cc(OC)ccc2c1NC(=O)CCN1CCN(c2ccccc2)CC1	-16	1	-1.6	-7%	10
COc1cc(-c2n[nH]c(=S)n2-c2ccc(C)cc2)cc(OC)c1OC	.	-4	-0.2	-3%	1
Cc1nnc(SCCn2c(N3CCC(Cc4ccccc4)CC3)nc3c2c(=O)[nH]c(=O)n3C)s1	.	45	3.6	.	15	Arbovirus anti repeat=-3

The results go on:
SMILES	YopH PTP inh	Mtb bLac sens	RecA splice inh	Mtb H37Rv	Arbovirus anti	others
FC(F)(F)c1ccc(CN2C[C@@H]3C(c4ccc(Cl)nc4)C4(c5ccccc5)CC3(C4)[C@H]2c2ccccc2)cc1 (stereo not given in full)	.	-13	4.1	8%	.
CCn1c(SC)nc(O)c(C(c2ccc(OC)c(O)c2)c2c(O)nc(SC)n(CC)c2=O)c1=O	-37	7	0.9	.	14
c1ccc(-c2nccc3ccccc23)cc1	.	-5	0.7	.	.
COc1ccc(N2CCN(C(=O)CSc3nc4[nH]ncc4c(=O)n3-c3ccc(Br)cc3)CC2)cc1	.	97	2.5	-6%	-15
COc1ccc(-n2nnnc2SCC(=O)Nc2ccccc2)cc1	-10	-3	-2.8	-4%	4
CNC(=S)SCCOc1ccccc1C	-14	6	5.7	0%	-3
CC1(C)CC[C@]2(CO)[C@@H](O)C[C@]3(C)C(=CCC4[C@@]5(C)CC[C@H](O)C(C)(C)C5CC[C@]43C)[C@@H]2C1 (stereo not given in full)	.	-4	-1.2	2%	.
COc1cc(OC)c2c(-c3ccccc3)cc(=O)oc2c1C(CC(=O)N1CCOCC1)c1ccc2c(c1)OCO2 (stereo not given)	.	-4	-1.1	1%	.
O=C(CCSc1nc(-c2ccco2)cc(C(F)(F)F)n1)N1CCN(c2ccccn2)CC1	-13	95	8.4	7%	-1
O=C1c2cccc3cccc(c23)C(=O)N1c1cccc(O)c1	.	-4	-0.9	.	.
CC(C)(C)NC(=O)CN(Cc1cccs1)C(=O)CCC(=O)Nc1nccs1	-36	-8	-2.2	2%	4
O=C(CN1CCN(C(c2ccccc2)c2ccccc2)CC1)N1N=CCC1c1ccccc1 (stereo not given)	.	6	6.8	-3%	.
COc1ccc(CSc2nnnn2C)cc1[N+](=O)[O-]	-31	-7	-2.6	-11%	4
COc1cc(NC(=O)C(C)Oc2ccccc2)c(C(=O)O)cc1OC (stereo not given)	-25	9	2.1	-5%	12
Cc1ccc(NC(=O)NC2CCCCCCC2)cc1	.	100	-1.8	.	.
Cc1cc(CN(C)C(=O)c2cc(COc3ccc(F)cc3Cl)on2)n[nH]1	.	1	1.2	3%	-2
O=C(O)CNC(=O)c1ccc(NC(=O)/C(=C/c2ccccc2)NC(=O)c2ccco2)cc1	.	-8	-2.0	.	.
COC(CNC(=O)CN1C(=O)COc2ccc(S(=O)(=O)N3CCOCC3)cc21)OC	.	-5	5.6	.	.
O=C(NCCc1cccs1)C1CC(c2ccccc2[N+](=O)[O-])=NO1 (stereo not given)	-36	-3	-1.2	-10%	0
Cc1cc(C(=O)Oc2cccnc2)ccc1[N+](=O)[O-]	3	99	14	72%	7
O=C(CCNC(=O)N1CC(=O)Nc2ccccc21)Nc1ccc(Br)cc1F	.	-12	-0.1	.	.
CC(=O)N/C(N)=N/c1nc2cc(C)ccc2o1	.	7	-0.4	-3%	.
Cc1cc(=O)oc2ccc(OCC(=O)NCc3ccco3)cc12	4	-6	-2.1	-7%	2
COc1ccc(OC)c(/C=C/c2ccc3cccc(O)c3n2)c1	.	100	2.5	.	.
CC(=O)c1ccc(OCc2cc(C(=O)N(C)C(C)c3ccon3)no2)cc1 (stereo not given)	.	-13	1.7	.	.
COc1ccc(S(=O)(=O)N2CCN(C/C=C/c3ccccc3)CC2)cc1F	.	-8	7.0	.	.
Cc1cccc(C(=O)Nc2cccc(C(=O)N/N=C/c3ccc4c(c3)OCO4)c2)c1	.	-2	-0.7	.	.
Cc1cc(C)c[n+](C2=C([O-])c3ccccc3C(=O)/C2=N\S(=O)(=O)c2cccs2)c1	2	1	1.9	1%	-10
N#CCC(=O)Nc1ccc(C(=O)OCC(=O)N(Cc2ccccc2)C2CCS(=O)(=O)C2)cc1 (stereo not given)	.	-3	1.6	2%	3
O=S(=O)(NCc1ccccn1)c1cccc2nsnc12	-18	-11	0.5	-9%	3
COc1ccc(N(C)C(=O)C2CCCN2S(=O)(=O)c2cccc3nsnc23)cc1 (stereo not given)	.	0	10	.	.

High-throughput results: PubChem BioAssay, several laboratories
